TRPML1 blocker – human mucolipin-1 channel inhibition; hit rate 0.02% among 390,000; Q9GZU1; TRPML1-inducible cells, Ca2+ dye fluorescence, FDSS; hits give low values; inhibition of EC80 agonist-evoked calcium signal; activity change, negative = inhibition, % (no concentration beside the values); in the data active means activity change below about -50%; inconclusive means about -30% to -50%; inactive means above about -30%;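 note: stimulus is agonist 54-4 at its EC80 concentration; % is set by controls: 0 for no effect and ±100 for the full control effect; compound concentration not given in the record; the text of the record puts the active cut at -80%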
Target sequence (Q9GZU1 whole entry, looked up): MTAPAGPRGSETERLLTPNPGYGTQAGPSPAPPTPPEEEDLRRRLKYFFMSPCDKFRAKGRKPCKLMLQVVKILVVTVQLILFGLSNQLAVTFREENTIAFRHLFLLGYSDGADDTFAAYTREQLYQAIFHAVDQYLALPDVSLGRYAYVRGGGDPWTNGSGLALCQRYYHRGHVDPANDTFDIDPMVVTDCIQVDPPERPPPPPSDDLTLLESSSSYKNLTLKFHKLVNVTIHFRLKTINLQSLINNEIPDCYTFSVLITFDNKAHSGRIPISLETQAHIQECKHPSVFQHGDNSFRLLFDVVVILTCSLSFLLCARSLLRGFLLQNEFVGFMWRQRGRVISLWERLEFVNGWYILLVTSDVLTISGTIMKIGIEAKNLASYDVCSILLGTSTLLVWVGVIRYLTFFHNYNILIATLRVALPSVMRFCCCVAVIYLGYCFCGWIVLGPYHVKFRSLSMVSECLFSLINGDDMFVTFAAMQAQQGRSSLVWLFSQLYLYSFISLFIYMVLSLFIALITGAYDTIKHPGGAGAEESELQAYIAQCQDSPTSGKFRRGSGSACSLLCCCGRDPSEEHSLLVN
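Calcium fluorescence in TRPML1-DL cells induced overnight with Tet: a 110 s read after compound pin addition, then a 110 s antagonist read after challenge with 54-4 at 4 uM final (EC80).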
TRPML1 ag – human mucolipin-1 channel agonism; Q9GZU1; TRPML1-expressing cells, Ca2+ dye fluorescence, FDSS; host cell line not named in the record; reference of the full effect not given here; activation, % (concentration not given with the values); hit rate 0.12% among 410,000; AID 624414; in the data active = activation above about 50%; inconclusive = about 30% to 50%; inactive = below about 30%; note: 0% is about no effect; the text of the record puts the active cut at 80%
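Cells: TRPML1-DL, 1X Tet inducer, ~16 h at 37 degrees C/5% CO2. Dye: ABD Ca8 no-wash + quencher, 45-90 min RT. Read: 10 s baseline, compound add, 110 s agonist phase; 54-4 EC80 (4uM final), 110 s antagonist phase.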
Menin-MLL FL inh – inhibitors of human menin-MLL interaction, wild-type MLL peptide | 290,000 tested, under 10 active | FP activity change, % at 61.4 µM | Fluorescence polarization, fluorescein-MLL peptide displacement from menin; inconclusive = falling polarisation curve, or a change in total fluorescence; inactive = total fluorescence flat and polarisation flat or rising; no compound was filed as active; the % refers to the polarisation; negative = inhibition;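 note: % of control where 0% means no effect; inhibitors lower the polarisation; unlabelled MLL peptide was the positive control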
TRPV1 potentiator – enhances activation of the human vanilloid receptor TRPV1 | TRPV1-expressing cells, Fluo-8 calcium influx, capsaicin EC20 potentiation; host cell line not named in the record; control for the full effect not named in the record | AID 540277 | potentiation, % at 8.33 µM | hit rate 0.02% among 320,000; active means potentiation above 80%; inconclusive means 30% to 80%; inactive means below 30%; note: 0% is about no effect
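TRPV1-expressing cells were cultured overnight at 35.5C and loaded with Fluo-8 calcium dye for 40 to 90 min at room temperature. After a 10 s baseline, compound was added and calcium influx was read kinetically for 3 min (ex 480/em 520 nm).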
ClpP mod – qHTS Assay for Activators of ClpP | ATP-dependent Clp protease proteolytic subunit (Bacillus subtilis (strain 168)), P80244 | Potency, µM (series often up to 57.5 µM), inactives show top-dose activity change, negative = active | purified B. subtilis ClpP, FRET peptide cleavage, 20 min | hit rate 1.9% among 340,000 | AID 651965, 2013; active = well fitted falling curve with a large enough effect; inconclusive = small, poorly fitted or top-dose-only effect; inactive = no such curve, though single readings can be large or run the other way; note: potency is the fitted concentration of half-maximal effect; the source files actives as falling curves though it sought activators and does not explain the sign; nearly all actives have a fitted effect of over 65% in size; many hits overshoot -100%
Target sequence (P80244 whole entry, looked up): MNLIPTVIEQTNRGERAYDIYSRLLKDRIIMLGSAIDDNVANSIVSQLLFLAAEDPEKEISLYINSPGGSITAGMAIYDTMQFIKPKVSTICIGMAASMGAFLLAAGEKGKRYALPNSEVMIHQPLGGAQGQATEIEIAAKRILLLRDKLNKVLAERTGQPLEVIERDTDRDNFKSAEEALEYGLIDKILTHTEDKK
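ClpP 10 microg/mL final, pH 8 Tris/KCl buffer with BSA, glycerol, Tween-20; compound pinned in; FRET-FV substrate; RT 20 min; Ex320/Em430; ΔFRET vs ADEP 5.8 microM, DMSO, no enzyme.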
PINK1 expr mod – PINK1 expression modulation; PINK1 immunofluorescence, high-content cytometry, 24 h; Potency, µM (top dose mostly 76.6 µM), without a hit: at the top dose activation (PINK1 increase), usual class: activators; hit rate 0.2% among 410,000; AID 624263; active = well fitted activation curve with a large enough effect; inconclusive = small, poorly fitted or top-dose-only effect; inactive = flat fitted curve, though single readings scatter; cell line not stated here;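 note: potency is the fitted concentration of half-maximal effect; % of control where 0% means no effect; nearly all actives have a fitted effect of over 65% in size; a mitochondrial uncoupler was the plate control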
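PINK1 protein, normally rapidly degraded, was detected by immunofluorescence after 24 hour compound treatment of a stable cell line. Titration data (5 concentrations) came from laser-scanning cytometry, with CCCP-treated wells as controls.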
Sfp PPTase inh – inhibitors of Bacillus subtilis Sfp phosphopantetheinyl transferase. hit rate 3.5% among 310,000. Biochemical Sfp PPTase activity, qHTS. Potency, µM, inactives show max response, negative = inhibition, most hits filed as inhibitors; active = well fitted inhibition curve with a large enough effect; inconclusive = small, poorly fitted or top-dose-only effect, or another doubt; inactive = no such curve, though single readings can be large or run the other way;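 note: the enzyme is Sfp with the accession as filed and its product quenches rhodamine fluorescence; potency is the fitted concentration of half-maximal effect; 0% = enzyme reaction without inhibitor and -100% = no enzyme wells; top concentration of the series not given in the record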
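Buffer: 50 mM Hepes-Na pH 7.6, 10 mM MgCl2, 0.01% Nonidet P-40, 0.01% BSA. Enzyme 15 nM, pre-exposed to compound 15 min; substrates then added and fluorescence change tracked over 30 min.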
* marks the source's active call; other numbers are inactive results; ? = inconclusive; . = not tested or not shown; [ ] = remark or other dose.

SMILES	TRPML1 blocker	TRPML1 ag	Menin-MLL FL inh	TRPV1 potentiator	ClpP mod	PINK1 expr mod	Sfp PPTase inh
COC(=O)C1=C(C)N(C)C(C)=C(C(=O)OC)C1c1ccccc1C	-1	1.5	2.8	18	0.7%	1.9%	-7%
COc1cc2c(cc1O)C(Cc1ccc(O)cc1)NCC2 (configuration not stated)	-5	-1.2	1.7	7	-2.3%	-0.9%	-4%
CCCNC(=O)CSc1n[nH]c(=O)n1CCc1ccccc1	-3	1.2	-16	?	-0.5%	-2.3%	1%
O=C(c1ccccc1)n1c(=O)cc[nH]c1=O	-15	0.1	.	-26	-2.6%	-0.6%	.
NC(=O)C1CCN(C(=O)C2CCN(S(=O)(=O)c3ccccc3)CC2)CC1	-13	-0.4	0.5	-6	1.9%	1.9%	-5%
CCOC(=O)c1ccc(NC(=O)Cn2c(=O)cc(C)c3c(C)nn(-c4ccc(CC)cc4)c32)cc1	14	-0.5	.	.	-10%	0.2%	.
O=C(COc1ccc(Cl)cc1Cl)NC(=S)Nc1ccc(CN2CCOCC2)cc1	-12	0.7	5.4	2	-0.3%	2.4%	-6%
COc1ccc(/C=C/C(=O)Nc2ccccc2C(F)(F)F)cc1OC	17	-0.7	2.5	8	-0.3%	4.1%	21%
c1ccc(CCNCCOc2ccccc2)cc1	2	-0.1	-3.7	-8	71%	0.3%	-26%
CCc1ccc(NS(=O)(=O)c2c(-c3ccccc3)csc2C(=O)OC)cc1	-7	0.7	.	.	-0.8%	3.7%	.
CC(C)NC(=O)C1CCC(Cn2c(=O)c3sccc3n(CC(=O)NCc3ccccc3)c2=O)CC1 (configuration not stated)	17	0.1	.	.	-2.5%	-0.2%	.
CCC1=CC(c2ccccc2)n2ncnc2N1 (configuration not stated)	14	-0.5	.	.	3.9%	-0.9%	.
CCOCCn1c(CN2CCN(C)CC2)nc2c1c(=O)n(C)c(=O)n2C	2	-0.3	0.6	-7	-4.7%	2.6%	3%
O=C(Nc1cccc(F)c1)N1CCCC2(CCN(C(=O)c3ccncc3)CC2)C1	.	.	-6.0	.	.	0.3%	5%
COc1ccc(C(CNC(=O)COc2ccccc2C)N2CCOCC2)cc1 (configuration not stated)	10	0.5	.	-12	0.4%	?	.
CCCCCN=CC1=C(O)CC(c2ccccc2)CC1=O (configuration not stated)	-5	-0.6	-0.5	-13	.	-0.6%	13%
CCCCCCSc1nsc(NC(C)=O)n1	2	1.1	1.9	-22	0.1%	3.1%	4%
CCn1c(=O)cc(OCC(=O)Nc2ccc(OC)c(OC)c2)c2ccccc21	13	0.6	1.3	18	.	1.8%	13%
O=C(CSc1nccn(-c2ccc(F)c(F)c2)c1=O)NC1CCCC1	0	0.6	.	-11	?	1.5%	.
COc1ccc(C(=O)Nc2ccc(-c3cn4ccsc4n3)cc2)cc1S(=O)(=O)N1CCOCC1	-4	-0.5	-1.6	22	22%	?	11%
COC(=O)C1=C(C)N(C)C(=O)NC1c1c(O)ccc2ccccc12 (configuration not stated)	12	-0.3	0.0	11	?	-0.2%	6%
Cc1ccc(CNC(=O)CSc2ncc(S(=O)(=O)c3ccc(Br)cc3)c(=O)[nH]2)cc1	-20	-0.2	.	.	-6.1%	0.3%	.
Clc1cccc(Cl)c1CN1CCN(c2ncccn2)CC1	11	-0.4	2.6	0	.	6.1%	-22%
CC1CCCCN1C(=S)NC(=O)c1ccccc1 (configuration not stated)	-5	-0.1	.	1	-1.4%	2.4%	.
COCC(=O)Nc1ccc(F)cc1	-9	0.0	0.9	-2	.	0.1%	2%
COc1cc(NC(=O)c2ccccc2[N+](=O)[O-])ccc1NC(=O)c1cc2ccccc2o1	10	-0.2	.	.	-3.3%	0.6%	.
CSc1nc2ccc(Nc3nc(N4CCOCC4)nc(N4CCOCC4)n3)cc2s1	-8	-0.5	3.7	-22	-12%	-3.9%[38.3 µM]	-16%
CC1=CC(c2ccc(Cl)cc2)n2ncnc2N1 (configuration not stated)	2	-0.7	.	.	4.4%	-0.4%	.
CN1CCN(C(=O)c2cc([N+](=O)[O-])cc([N+](=O)[O-])c2)CC1	-2	-0.1	6.0	6	-2.9%	0.7%	7%
O=C(CC(=O)c1ccccc1)Nc1cccnc1Cl	-10	0.0	3.1	7	-2.6%	2.3%	12%
COc1ccc(Cl)cc1NS(=O)(=O)c1c(C)nc2scc(C)n2c1=O	-3	0.4	.	.	0.2%	2.2%	.
CCS(=O)(=O)N1CCN(c2ccc([N+](=O)[O-])c(NC(C)c3ccccc3)c2)CC1 (configuration not stated)	-17	1.0	3.3	-15	0.8%	0.1%	8%
COC(=O)c1c(NC(=O)COc2ncnc3ccccc23)sc(C)c1C	7	-1.1	10	5	-5.6%	0.6%	-8%
CCCc1ccc(OCc2ccc(C(=O)O)o2)c(OC)c1	-13	-0.9	5.0	2	-3.4%	0.4%	12%
CCCCN(CC)CCNC(=O)c1cc2c(=O)[nH]c3ccc(C)cc3c2s1	4	-0.5	-1.4	9	-1.0%	-2.0%	5%
O=C(Cn1c(=O)c2cccn2c2ccc(F)cc21)Nc1cccc(F)c1	20	0.6	.	.	?	-0.2%	.

The list goes on, overlapping the part above by 2 compounds.
SMILES	TRPML1 blocker	TRPML1 ag	Menin-MLL FL inh	TRPV1 potentiator	ClpP mod	PINK1 expr mod	Sfp PPTase inh
CCCCN(CC)CCNC(=O)c1cc2c(=O)[nH]c3ccc(C)cc3c2s1	4	-0.5	-1.4	9	-1.0%	-2.0%	5%
O=C(Cn1c(=O)c2cccn2c2ccc(F)cc21)Nc1cccc(F)c1	20	0.6	.	.	?	-0.2%	.
O=C1OCCC1Sc1nnc(-c2ccc(F)cc2)n1Cc1ccccc1 (configuration not stated)	14	1.4	1.2	-5	25µM*	3.4%	5%
Cc1nc2sccn2c(=O)c1S(=O)(=O)NCCc1ccccc1	-10	-0.4	-4.2	8	4.3%	-0.5%	21%
O=C(NCC1CCCO1)/C(=C/c1ccccc1F)NC(=O)c1ccccc1 (configuration not stated)	3	-1.2	5.4	7	-1.7%	3.6%	17%
Cc1ccc(OCC(=O)NCCCNC(=O)c2ccco2)cc1	-7	0.7	7.0	4	.	-2.0%	13%
CCOc1ccc(-n2ccnc2SCC(=O)Nc2nnc(CC)s2)cc1	-2	2.3	-0.8	-1	-5.6%	-2.0%	-8%
COc1ccc(C(=O)CSc2nccn2C)c(OC)c1	-1	0.1	.	15	-0.8%	-1.2%	-9%
N=c1c(C(=O)NC2CCCCC2)cc2c(=O)n3ccccc3nc2n1Cc1ccc(F)cc1	-12	0.5	-9.8	3	3.9%	17%	-7%
O=C(c1cccc2c1-c1ccccc1C2)N1CCCCC1	9	1.5	2.0	5	.	-0.6%	-6%
Cc1ccccc1CC(=O)Nc1sc(C(C)C)cc1C(=O)N1CCOCC1	46	-0.3	.	8	0.7%	-0.9%	-17%
O=C(NCCc1c[nH]c2ccccc12)c1ccc(Br)o1	44	5.4	.	.	0.7%	-0.8%	.
CCOC(=O)CNC(=O)CSc1nnc(-c2ccncc2)n1-c1ccc(Cl)cc1	-2	0.2	-1.4	26	-5.7%	.	16%
CCOc1ccc(OCCC(=O)N(CCCOC)c2c(N)n(Cc3ccccc3)c(=O)[nH]c2=O)cc1	8	0.5	.	11	.	-1.8%	.
CCN(CC)S(=O)(=O)c1ccc(Oc2ccccc2)c(N)c1	24	1.3	-1.0	-3	.	0.2%	-1%
COC(=O)c1cc(Oc2ccc(S(=O)(=O)N3CCOCC3)cc2[N+](=O)[O-])cc(C(=O)OC)c1	2	-0.1	.	11	1.0%	-0.1%	.
COCCn1c(CNC(=O)c2cccc(C)c2)nc2cccnc21	13	-0.7	.	.	-0.4%	2.1%	.
O=C(NCC1CCCO1)c1ccc(C(=O)NCC2CCCO2)cc1 (configuration not stated)	-4	-0.3	0.0	-38	?	1.4%	11%
O=C1C2C(C(=O)N1/N=C/c1ccco1)C1C=CC2C12CC2 (configuration not stated)	16	0.0	-1.7	21	-1.0%	?	-6%
CCOC(=O)CC(NC(=O)Cn1nnc(-c2ccc(Cl)cc2)n1)c1ccc(OC)cc1 (configuration not stated)	23	0.6	.	.	-15%	7.4%	.
Cc1cccc(-c2nnc(SCC(=O)N3CCCc4ccccc43)o2)c1	23	2.8	.	.	-1.0%	4.4%	.
Cn1ccc2c(-c3cccc(C=O)c3)cc3c(c21)C1CCC3C1 (configuration not stated)	-18	2.8	.	.	19%	6.3%	.
O=C(COc1ccc(Br)cc1)N1CCOCC1	5	-0.8	-1.8	0	0.0%	1.9%	4%
O=C(NCCc1ccc(Cl)cc1)C1CCN(S(=O)(=O)N2CCCCC2)CC1	22	1.5	3.2	-6	-0.9%	9.0%[38.3 µM]	11%
C/C(=N/NC(=O)C(C)n1nc(C)c([N+](=O)[O-])c1C)c1ccc(OCC(N)=O)cc1 (configuration not stated)	31	-0.8	2.5	2	.	3.9%	15%
O=C(N/C(=C/c1ccccc1Cl)C(=O)N1CCOCC1)c1ccccc1	14	-0.5	.	.	1.2%	-0.6%	.
C=CCn1c(SCC(=O)N(C)C2CCCCC2)nnc1C1CC1	42	2.9	.	.	1.1%	-0.6%	.
C=C(C1=CCN(S(=O)C(C)(C)C)[C@@H]1CCO)c1ccccc1 (some centres not stated)	51	0.2	.	.	0.7%	1.3%	.
O=C(Nc1cc(-c2ccccc2F)nn1-c1ccccc1)c1ccccc1Br	18	-0.8	.	.	-3.5%	-0.8%	.
Cn1c(=N)n(CC(=O)c2ccc(Br)s2)c2ccccc21	23	0.2	3.0	5	-1.0%	0.6%	-2%
Cc1ccc(S(=O)(=O)N2CCOCC2)cc1NC(=O)CN1C(=O)NC2(CCCC2)C1=O	-11	-0.4	.	.	-3.1%	-0.8%	.
COc1ccc(NC2=C(C(C)=O)C(c3ccccc3)C(C(C)=O)C(C)(O)C2)cc1 (configuration not stated)	-1	-0.7	-0.9	-7	.	1.4%	23%
COc1cc2c(cc1OC)C1=CC(=O)C(=O)N1C(C)(C)C2	5	-0.6	?	11	.	3.0%	8%
Cc1cccc(C(=O)NC2CCN(CC(=O)NCc3ccccc3F)CC2)c1	6	-0.7	2.3	-4	.	2.3%	9%
O=C(CN(C(=O)CNC(=O)c1ccco1)c1ccc2c(c1)OCCO2)NC1CCCC1	6	-0.4	-5.1	-6	-0.3%	3.3%	16%
